NPYLR7 ag: activates Aedes aegypti NPYLR7 receptor; HEK293T NPYLR7/Galpha15, GCaMP6s calcium fluorescence; activation, % at 10 µM; 270,000 tested, 0.15% active; in the data active = activation above about 40%;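 note: 0% = vehicle and 100% = reference agonist at the receptor; some compounds past the cut are filed as inactive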
NPYLR7 ag max-min: also measured in NPYLR7 ag; calls as there; activation, %; measured here: Max-Min RFU normalised activation; some inactives read as strong as hits;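 span of the calcium signal over five minutes; 0% = vehicle and 100% = native peptide agonist; compound fluorescence can raise it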
Numbers without * were called inactive.

The line under a structure holds: NPYLR7 ag, NPYLR7 ag max-min
1. CCOC(=O)CCCC(=O)N1CCCN(c2c(-c3ccc(OC)c(OC)c3)cnc3ncnn23)CC1
  2, -1
2. Cc1cc(C)n(-c2nc(C)c(C)c(=O)n2CC(=O)N2CCCCC2)n1
  -3, 3
3. O=C(CCN1Cc2ccccc2-c2ccccc2C1)N1CCOCC1
  7, 2
4. COC(=O)c1sccc1S(=O)(=O)Nc1cc(C)ccc1OC
  -1, -4
5. O=S(=O)(c1ccc(F)cc1)c1ccc(F)cc1
  -9, -17
6. CC1CN(C(C)(C)CNC(=O)c2n[nH]c3ccccc23)CC(C)O1 (stereo unspecified)
  0, 0
7. O=C(CCc1cnc[nH]1)N1CCOc2c(O)cc(-c3cccnc3)cc2C1
  1, -4
8. COc1cccc(Cc2nsc(N(CCC(=O)NCCN3CCCCC3)C(C)C)n2)c1
  -11, -9
9. N#CC1C(=S)NC(=O)CC1c1ccco1 (stereo unspecified)
  0, -5
10. Cn1nc(-c2cccnc2)c2c1NC(=O)CC2c1cnc(N2CCCC2)nc1 (stereo unspecified)
  -4, -4
11. C#CCN(C)C(=O)C[C@@H]1c2nc(-c3cccnc3)sc2C[C@@H]2[C@](C)(CO)[C@H](O)CC[C@]21C
  -13, -17
12. CC(=O)Oc1c(-c2ccc(NC(=O)c3ccc4c(c3)OCO4)cc2)c(-c2ccc(C)cc2)nn1-c1cccc(C)c1
  -2, -1
13. CC1CCCCN1Cc1nc2sc3c(c2c(=O)[nH]1)CCCC3 (stereo unspecified)
  1, 24
14. O=C(c1cc(-c2cccs2)nn1-c1ccc(F)cc1)N1CCN(c2cccc(C(F)(F)F)c2)CC1
  3, 11
15. CC(NC(=O)c1ccccc1)C(=O)NC(C)c1ccc(S(N)(=O)=O)cc1 (stereo unspecified)
  3, 0
16. C=CCC(NC(C)=O)C(=O)N1CCc2c(cnn2CC(=O)OCC)C1 (stereo unspecified)
  0, 20
17. CC(C)COc1nc(-c2cccc(C(F)(F)F)c2)n(-c2ccc(NC(=O)/C=C/c3ccccc3)cc2)n1
  10, 17
18. CCc1nc2c(OCc3ccc(Cl)cc3Cl)cccn2c1N(C=O)CC(=O)N(C)C
  -14, -18
19. CCCN1CCCc2cc(CCNC(=O)c3cc(OC)cc(OC)c3)ccc21
  8, 1
20. Cc1cc2c(SCC(=O)Nc3ccccc3Cl)ncnc2s1
  -8, -11
21. CN(C)CCCN(C(=O)c1ccc2c(c1)OCCO2)c1nc2ccc(Cl)cc2s1
  -2, -3
22. C=C1C2(C(=O)N3CCC(c4ccc(F)cc4)C3)CCC(C2)C1(C)C (stereo unspecified)
  -5, -11
23. CCOCCn1c(SCC(=O)OCc2ccccc2)nc2c1c(=O)[nH]c(=O)n2C
  0, -3
24. CCC(C)N(Cc1ccc(OC)c(OS(=O)(=O)CC)c1)C(=O)c1ccccc1F (stereo unspecified)
  27, 24
25. CC(OC(=O)c1cccc(OC(F)F)c1)c1nc2ccccc2c(=O)[nH]1 (stereo unspecified)
  14, 7
26. C#Cc1ccc(NC(=O)C2(C)CCN2C(=O)c2ccc(C(C)(C)C)cc2)cc1 (stereo unspecified)
  14, 12
27. Cc1cc(=O)oc2cc(OC(=O)CCl)ccc12
  24, 11
28. CC(=NNc1ccccc1)c1no[n+]([O-])c1C
  -8, -17
29. COc1cc(CSc2ncc(CO)n2CC(N)=O)cc(OC)c1
  9, 5
30. c1ccc2c(Nc3ccc(N4CCOCC4)cc3)nc(N3CCOCC3)nc2c1
  3, 14
31. CCOC(=O)CC1=CSC2=NS(=O)(=O)CCN12
  3, 7
32. COC(=O)c1ccc(CNC(=O)CN2CCC(n3ccnc3)C2)o1 (stereo unspecified)
  11, 6
33. CC(C)c1ccc(CN2CCCC3(CCN(C(=O)c4ccnc(N)c4)C3)C2)cc1 (stereo unspecified)
  -1, -3
34. O=C(NCCCn1ccc2ccccc21)C1CCOC1 (stereo unspecified)
  -1, -4
35. CN(C)c1ccc(NC(=O)CC2CC3CCC2C3)nc1 (stereo unspecified)
  -20, -24
36. CC(C)CN(CC(=O)NC(N)=O)C1CC1
  6, 4
37. FC(F)(F)c1cc(-c2ccccc2)nc2c3ccccc3nn12
  -2, -5
38. O=C(Cn1nc2c(c1NC(=O)c1ccco1)CSC2)NCc1ccccc1
  -3, 5
39. COC(C)(C)CC(C)NCCn1c(C)cc(C)nc1=O (stereo unspecified)
  4, -1
40. COc1ccc(NC(=O)c2sc(=O)n(CC(=O)c3ccc(F)cc3)c2C)cc1OC
  12, 6

The final two compounds of the part above lead into the next:
The line under a structure holds: NPYLR7 ag, NPYLR7 ag max-min
39. COC(C)(C)CC(C)NCCn1c(C)cc(C)nc1=O (stereo unspecified)
  4, -1
40. COc1ccc(NC(=O)c2sc(=O)n(CC(=O)c3ccc(F)cc3)c2C)cc1OC
  12, 6
41. CC(=O)C(C)Sc1nc2c(c(=O)n(C)c(=O)n2C)n1Cc1ccccc1 (stereo unspecified)
  2, -2
42. CC(C)(C)c1nc(SCC(=O)NCc2ccc(Cl)cc2)n[nH]1
  8, 2
43. Cc1csc(SCc2cc(=O)c(OC(=O)c3cc(Cl)ccc3Cl)co2)n1
  -3, -8
44. COc1ccc(NC(=O)C2CCN(C(=O)[C@@H]3CCCN3C(=O)Nc3ccc(I)cc3)CC2)cc1
  -14, -13
45. Clc1ccc2nc(SCc3nnc(C4CCC4)o3)[nH]c2c1
  -4, -5
46. CCOC(=O)c1ccc2c(c1)nc(SCc1c(F)c(F)c(C(F)(F)F)c(F)c1F)n2CCOC
  4, 5
47. Cc1cccc(N2C(=O)/C(=C/c3cc(C)n(-c4cc(C)cc(C)c4)c3C)C(=O)NC2=S)c1
  -2, -7
48. CC1CCCN(Cc2nc3c([nH]2)c(=O)n(C)c(=O)n3C)C1 (stereo unspecified)
  6, 11
49. CCc1nc2ccc(C(=O)N3CCN(C(=O)c4ccco4)CC3)cn2c1N(C)CCCc1ccccc1
  -1, 11
50. CCCNC(=O)N1CCN(c2ccccc2F)C(=O)C1C (stereo unspecified)
  8, 21
51. COC[C@H]1C[C@H]2C[C@@H](OC)[C@H](N3CCc4c([nH]c5ccccc45)C3)[C@]2(O)CO1
  8, 18
52. Cc1ccc(NC(=O)Cc2ccc(OC(F)F)cc2)cc1F
  0, 0
53. O=C(NCCCCN1CCOCC1)Nc1ccc(Cc2ccncc2)cc1
  0, -4
54. N#CC(C#N)=Cc1cn(-c2ccccc2)nc1-c1cccc(Br)c1
  3, 1
55. COCCN1CC(C)(C)CN(C(=O)COc2ccccc2)CC1=O
  31, 34
56. Cc1cc(=O)[nH]c(SCc2cc(=O)n3nc(C)sc3n2)n1
  7, 7
57. Cc1cc(-c2csc(NCc3ccco3)n2)c(C)n1-c1ncn[nH]1
  0, 12
58. CC1(C(=O)N2Cc3ccccc3C2)CCN1C(=O)C1(c2ccccc2)CC1 (stereo unspecified)
  6, 4
59. CC(C)c1nc2ccccc2n1CC(=O)N(c1ccccc1)C(C)C
  -9, -10
60. Cc1cn2c(C(=O)N3[C@@H]4CC[C@H]3CNC(=O)C4)csc2n1
  0, 0
61. CC(C)c1nn2c(N)cc(=O)nc2s1
  -3, -2
62. Cc1cc(SC(C)(C)C)ccc1NC(=O)NCCc1cnn(C)c1
  4, -13
63. CCCCOC(=O)C1C2C=CC3(CN(CCCC)C(=O)C13)O2 (stereo unspecified)
  4, 2
64. CCOc1ccc(CC(=O)NCCc2cc3ccc(C)c(C)c3[nH]c2=O)cc1
  2, -3
65. C=CCN1C(=O)NC(c2ccccc2)C2=C1CN(Cc1ccccc1)C2=O (stereo unspecified)
  1, 9
66. Cc1nccn1-c1ccc(NC(=O)C2CCCN(Cc3ccncc3)C2)cc1 (stereo unspecified)
  -7, -8
67. CCN(CC)S(=O)(=O)c1ccc(OC)c(N2CCN(C(=O)CSc3ccccc3)CC2)c1
  24, 22
68. COc1cc(N(C)CCc2noc(C(C)C)n2)ncn1
  -12, -12
69. CC(C)c1cc(C(=O)N(C)Cc2nnc(-c3ccccc3)o2)no1
  12, 5
70. OCCSc1nnc(Nc2ccccc2)s1
  13, 11

Structures from the list above with an NH in an aromatic ring (twelve):
The line under a structure holds: NPYLR7 ag, NPYLR7 ag max-min
6. CC1CN(C(C)(C)CNC(=O)c2n[nH]c3ccccc23)CC(C)O1 (stereo unspecified)
  0, 0
7. O=C(CCc1cnc[nH]1)N1CCOc2c(O)cc(-c3cccnc3)cc2C1
  1, -4
13. CC1CCCCN1Cc1nc2sc3c(c2c(=O)[nH]1)CCCC3 (stereo unspecified)
  1, 24
23. CCOCCn1c(SCC(=O)OCc2ccccc2)nc2c1c(=O)[nH]c(=O)n2C
  0, -3
25. CC(OC(=O)c1cccc(OC(F)F)c1)c1nc2ccccc2c(=O)[nH]1 (stereo unspecified)
  14, 7
42. CC(C)(C)c1nc(SCC(=O)NCc2ccc(Cl)cc2)n[nH]1
  8, 2
45. Clc1ccc2nc(SCc3nnc(C4CCC4)o3)[nH]c2c1
  -4, -5
48. CC1CCCN(Cc2nc3c([nH]2)c(=O)n(C)c(=O)n3C)C1 (stereo unspecified)
  6, 11
51. COC[C@H]1C[C@H]2C[C@@H](OC)[C@H](N3CCc4c([nH]c5ccccc45)C3)[C@]2(O)CO1
  8, 18
56. Cc1cc(=O)[nH]c(SCc2cc(=O)n3nc(C)sc3n2)n1
  7, 7
57. Cc1cc(-c2csc(NCc3ccco3)n2)c(C)n1-c1ncn[nH]1
  0, 12
64. CCOc1ccc(CC(=O)NCCc2cc3ccc(C)c(C)c3[nH]c2=O)cc1
  2, -3

Carrying on:
The line under a structure holds: NPYLR7 ag, NPYLR7 ag max-min
71. O=C(c1cn(-c2ccccc2)nn1)N(C/C=C/c1ccccc1)C1CC1
  -2, -3
72. CCN(CC)C(=O)NCC(C(=O)N1CCOCC1)c1ccccc1 (stereo unspecified)
  2, 2
73. O=C(O)CON=C1C2CC3CC(C2)CC1C3
  7, 4
74. N=C(N)SCCc1ccc(OCc2ccc([N+](=O)[O-])cc2)cc1
  -9, -13
75. O=C(NCc1nnc2ccccn12)c1cc(Cl)c2c(c1)OCCCO2
  -3, -2
76. O=C(c1ccccc1)c1ccc2c(c1)N=C1CCCC(=O)C1C(c1ccc(Cl)c(Cl)c1)N2 (stereo unspecified)
  -5, -11
77. CCc1nn(C)c2n[nH]c(NC(=O)c3c(C(C)C)nn(C)c3Cl)c12
  7, 5
78. COc1cc(OC)cc(-c2onc(C)c2C(=O)NC(C)c2ccccc2)c1 (stereo unspecified)
  24, 12
79. COCCOCC(=O)N1CCc2c([nH]c3ccc(OC)cc23)C1c1ccc(-c2ccccc2C(F)(F)F)o1 (stereo unspecified)
  5, 4
80. COC(=O)CSC1=C(C#N)C(c2ccsc2)CC(=O)N1 (stereo unspecified)
  -5, -9

Full records from above:
N=C(N)SCCc1ccc(OCc2ccc([N+](=O)[O-])cc2)cc1 in the list: NPYLR7 ag: -9; NPYLR7 ag max-min: -13
O=C(O)CON=C1C2CC3CC(C2)CC1C3 in the list: NPYLR7 ag: 7; NPYLR7 ag max-min: 4

(continued)
The line under a structure holds: NPYLR7 ag, NPYLR7 ag max-min
81. CC(=O)Nc1cccc(-c2cc(N)nc(N3CCCC3)n2)c1
  5, 2
82. CC1(C(=O)Nc2ccc3c(c2)OCCO3)CCN1C(=O)CCc1ccc(Cl)cc1Cl (stereo unspecified)
  -5, 1
83. c1ccc(-c2cnn3cc(CN4CCCC4c4ccccn4)cnc23)cc1 (stereo unspecified)
  0, 0
84. Cc1ccsc1CCNC(=O)CCC(=O)NC1CCCC1
  1, -3
85. CC1CCc2nc(NC(=O)c3cccs3)sc2C1 (stereo unspecified)
  0, -2
86. Cc1ccc(CN(C(=O)c2cn(-c3ccccc3)nn2)C2CCCC2)s1
  -3, -4
87. O=C(c1ccccc1)N1C(=S)C(c2ccccc2)=NC12CCCC2
  2, -3
88. COc1ccc(F)c(CNC2CCCN(c3ncccn3)C2)c1 (stereo unspecified)
  2, 1
89. O=C(c1ccc[n+]([O-])c1)N1CCCC(CO)(Cc2cccc(Cl)c2)C1 (stereo unspecified)
  3, 3
90. COC(=O)CC1=C(C(=O)OC)C(c2ccccc2)NC(=O)N1 (stereo unspecified)
  1, 14
91. CN(Cc1ccsc1)C(=O)c1ccc2nc(C3CCCCC3)oc2c1
  12, 8
92. O=C(O)C(c1cccc2c1Sc1ccccc1S2)N1CCS(=O)(=O)CC1 (stereo unspecified)
  2, 1
93. O=C1CC2(CCCC2)CC(=O)N1CCNc1ccc([N+](=O)[O-])cn1
  -13, -25
94. Cc1nc2ccccc2n1C1CCN(C(=O)C(C)CC(F)(F)F)CC1 (stereo unspecified)
  -5, -9
95. O=C(CSc1ccnc(=O)[nH]1)N1CCCC1
  1, 0

Source: PubChem (Fisher Drug Discovery Resource Center)

This is a subset. The share of hits here may be higher or lower than overall.
